Compound activity as filed in PubChem BioAssay.
PABP polyA inh – PABP-poly(A) binding inhibition. P11940. PABP-poly(A) RNA binding, fluorescence polarization. inhibition, % at 35 µM. 290,000 compounds, 1% hits;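 active means 50% or more with normal probe brightness, or confirmed in later tests; inconclusive means above 50% with abnormal brightness, or retests that disagree; inactive means below 50% or failed in later tests; about a fifth of its hits are not listed in these tables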;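 further: calls also rest on retests at 20 µM and on dose response follow-up; controls were probe without protein and protein plus probe with vehicle; some compounds called inactive have numbers as strong as hits; many hits fall short of the cut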
Target sequence (P11940 whole entry, looked up): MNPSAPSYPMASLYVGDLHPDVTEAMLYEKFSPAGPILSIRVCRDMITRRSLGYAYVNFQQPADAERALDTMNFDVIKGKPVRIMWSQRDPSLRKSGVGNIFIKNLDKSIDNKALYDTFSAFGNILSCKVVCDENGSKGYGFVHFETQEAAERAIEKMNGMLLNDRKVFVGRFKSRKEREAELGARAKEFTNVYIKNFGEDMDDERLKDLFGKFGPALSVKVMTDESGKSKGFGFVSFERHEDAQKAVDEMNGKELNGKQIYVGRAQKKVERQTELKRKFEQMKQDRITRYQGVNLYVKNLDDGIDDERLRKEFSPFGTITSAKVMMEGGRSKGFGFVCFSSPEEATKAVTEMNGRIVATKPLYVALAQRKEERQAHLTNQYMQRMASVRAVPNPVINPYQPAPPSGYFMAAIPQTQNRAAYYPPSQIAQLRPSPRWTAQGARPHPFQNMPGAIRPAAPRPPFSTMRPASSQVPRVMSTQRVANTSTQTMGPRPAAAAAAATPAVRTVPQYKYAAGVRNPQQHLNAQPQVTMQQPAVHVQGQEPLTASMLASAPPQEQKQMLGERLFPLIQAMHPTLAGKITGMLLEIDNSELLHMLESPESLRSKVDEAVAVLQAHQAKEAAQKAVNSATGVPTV
UUG fidelity – alters start codon recognition fidelity in yeast; activity score, % at 18.7 µM; S. cerevisiae UUG-firefly luciferase reporter, luminescence/redox ratio; 350,000 compounds, 0.13% hits;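 active means replicate mean at a twofold rise or more, about +100% in these data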;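 further: firefly luciferase made from a UUG start codon reports start codon fidelity; reporter light over untreated wells divided by growth signal over untreated wells; some hits fall short of that in this replicate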
CSC inhib – blocks cancer stem cells | cancer stem cell-like cells viability, luminescence | inhibition, % at 7.5 µM | 300,000 compounds, 1.1% hits | AID 2717;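 active means mean at 75% or more and at least half the replicates too; inconclusive means mean and replicates disagree; tested in HMLE shEcad cells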;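 further: 0% = median of negative and 100% = median of positive control wells; the first replicate is given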
Rce1 inh – blocks yeast Ras-converting enzyme; 290,000 compounds, 0.27% hits; Q03530; AID 2563; yeast membranes, quenched prenylated peptide cleavage fluorescence; calls only;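 active means fall in fluorescence gain of 50% or more versus controls, with final raw signal at or below 3038400; inconclusive means same 50% fall but final raw signal above 3038400; inactive means fall in fluorescence gain under 50%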;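 further: plate controls were neutral control wells for no effect and wells lacking membranes for full effect; tested at 10 µM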
eIF4H FP inh – inhibitors of RNA binding by human eIF4H; AID 2012; 290,000 compounds, 0.94% hits; inhibition, % at 35 µM; Q15056; eIF4H fluorescence polarization binding assay;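 active means 50% or more with normal probe brightness, or confirmed in later tests; inconclusive means above 50% with abnormal brightness, or retests that disagree; inactive means below 50% or failed in later tests; about a fifth of its hits are not listed in these tables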;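 further: calls also rest on retests at 20 µM and on dose response follow-up; 0% = protein and probe with vehicle and 100% = probe without protein; strong numbers were not always called active; many hits fall short of the cut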
MT1-MMP act inh – inhibitors of human MT1-MMP activation; P50281; HT1080 RFP-PRO-GFP cells, GFP/RFP ratio fluorescence, overnight; percent of plate control window, DMSO zero; GFP/RFP ratio change, % at 20 µM; 360,000 compounds, 0.061% hits;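 active means GFP/RFP ratio change of at least 30% with cell ATP level not reduced by more than half and red fluorescence within 50% of control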; further: strong numbers were not always called active
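Read-out: GFP/RFP fluorescence ratio; Test system: RFP-PRO-GFP reporter HT1080 cells; Compound dosing: single-point 20 µM compound, 1% DMSO; Times: overnight compound exposure at 37 °C.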
Env fusion inh – blocks HIV Env-driven cell-cell fusion | HeLa-JRFL Env/CEM21 cell fusion, luciferase | inhibition, % at 12.3 µM | 360,000 compounds, 1.1% hits;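 active means mean replicate inhibition score of at least 50 and every replicate individually at or above 50; inconclusive means only one of the two criteria met; inactive means mean below 50 and not all replicates reaching 50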;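 further: 0% = plate neutral controls and 100% = maraviroc near 300 nM; one replicate is shown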
MT1-MMP act inh RFP – recorded beside MT1-MMP act inh, whose call it bears; RFP signal change, %; measured here: RFP expression control read;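 0 = vehicle wells; hits needed this value within 50% of zero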
* hit, by the source's call; i = inactive; ? = inconclusive; . = no result given; & = joins results of further samples. Some of the compounds tested, so the mix of outcomes need not match the whole.

1: COc1cc2cc(CN(CCc3ccccc3C)C(=S)NCCCN3CCOCC3)c(=O)[nH]c2cc1OC
2: Cc1ccc(CNC(=O)CS(=O)Cc2nc(-c3ccccc3Cl)oc2C)cc1 (stereo not drawn)
3: COc1cc(OC)c(C(=O)OCC(=O)Nc2ccc(S(=O)(=O)N3CCOCC3)cc2)cc1OC
4: CC(=O)c1ccc(N2CCN(S(=O)(=O)c3ccc4c(c3)CCC(=O)N4)CC2)cc1
5: CN(C)c1cnn(-c2ccccc2)c(=O)c1Cl
6: CCN(Cc1ccccc1)Cc1nnnn1Cc1ccccc1
7: COc1ccc(N2CCN(C(=O)c3nc4nc(C)cc(C)n4n3)CC2)cc1
8: O=C(O)C(Cc1ccccc1-c1ccccc1)C(=O)O
9: CCN1CCN(CC(O)COCc2ccccc2)CC1 (stereo not drawn)
10: Cc1ccc(NC(=O)C(c2ccc(Cl)cc2)N2CCOCC2)cc1 (stereo not drawn)

Assay by compound,1,2,3,4,5,6,7,8,9,10
PABP polyA inh,2.2,4.8,.,.,0.0,-0.5,0.1,3.5,19.2,9.6
UUG fidelity,.,-16.9,1.6,-8.2,.,-4.1,1.3,0.4,-0.8,.
CSC inhib,2.0,-8.3,-9.3,.,-3.8,-3.9,-3.4,3.3,-13.9,-5.2
Rce1 inh,i,i,.,.,i,i,i,i,i,i
eIF4H FP inh,0.5,-3.9,.,.,-0.3,-3.7,-17.3,-3.1,2.3,6.6
MT1-MMP act inh,-1.3,2.8,2.3,6.7,-0.6,-9.0,2.8,-1.6,3.2,0.8
MT1-MMP act inh RFP,-0.1,0.4,-2.6,-2.9,3.8,2.2,2.7,-0.3,3.3,9.0
Env fusion inh,-25.5,0.9,.,-2.6,9.6,5.6,-11.7,0.2,.,-16.7

3 entries already listed, ordered by formula weight, smallest number first:
6: CCN(Cc1ccccc1)Cc1nnnn1Cc1ccccc1
4: CC(=O)c1ccc(N2CCN(S(=O)(=O)c3ccc4c(c3)CCC(=O)N4)CC2)cc1
3: COc1cc(OC)c(C(=O)OCC(=O)Nc2ccc(S(=O)(=O)N3CCOCC3)cc2)cc1OC

Assay by compound,6,4,3
PABP polyA inh,-0.5,.,.
UUG fidelity,-4.1,-8.2,1.6
CSC inhib,-3.9,.,-9.3
Rce1 inh,i,.,.
eIF4H FP inh,-3.7,.,.
MT1-MMP act inh,-9.0,6.7,2.3
MT1-MMP act inh RFP,2.2,-2.9,-2.6
Env fusion inh,5.6,-2.6,.

(cont.)
11: O=C(Nc1ccc2c(c1)OCCO2)C1CCN(C(=O)c2ccc(F)cc2)CC1
12: O=C(NNC(=S)Nc1ccc(Cl)cc1Cl)C1CC1
13: CC1=C(C(=O)OC2CCCCC2)C(c2ccc(C)o2)C2=C(CC(C)(C)CC2=O)N1 (stereo not drawn)
14: Cc1cc(S(=O)(=O)N2CCOCC2)ccc1OCC(=O)NCc1ccccn1
15: O=C(NC1CCCCC1)c1cc(Cl)nc2ccccc12
16: CCc1cccc(NC(=O)CN(C)S(=O)(=O)c2cccc3nsnc23)c1
17: CC(=O)N/C(=C\c1ccccc1)C(=O)Nc1ccc(O)cc1
18: N#Cc1c(N)sc2c1CCN(CCc1ccccc1)C2
19: CC1Sc2ccc(S(=O)(=O)CCC(=O)N3CCN(c4ccccc4)CC3)cc2NC1=O (stereo not drawn)
20: CN(C)c1nc(F)c(F)c(S(=O)(=O)c2ccccc2)c1F

Assay by compound,11,12,13,14,15,16,17,18,19,20
PABP polyA inh,-10.4,2.7,12.4,3.5,10.0,-16.4,0.4,-4.4,1.2,-3.1
UUG fidelity,10.9,-14.1,-8.7,-18.3,-20.3,-18.4,.,-11.7,-21.8,-6.3
CSC inhib,-5.4,-3.5,?,-6.9,-15.1,-8.2,2.9,-2.2,3.2,3.1
Rce1 inh,i,i,i,i,i,i,i,i,i,i
eIF4H FP inh,1.1,2.0,-0.3,-6.2,0.1,-2.8,-2.0,25.4,-9.6,-9.7
MT1-MMP act inh,-1.6,3.1,-7.7,0.8,-1.0,-1.3,6.7,-35.4,2.9,1.1
MT1-MMP act inh RFP,1.9,0.1,-11.0,4.3,6.4,-1.7,8.4,2.3,-5.9,-0.5
Env fusion inh,.,-4.4,25.6,17.2,11.6,21.5,-8.4,-6.1,8.7,5.6

21: COc1cccc(NC(=O)CN(C)C(=O)c2cc(Cl)nc3ccccc23)c1
22: C[C@H](NC(=O)[C@H]1N2C(=O)c3ccccc3C2SC1(C)C)C(=O)N1CCC[C@H]1C(=O)O (stereo partly drawn)
23: COCCNC(=O)Cn1cnc2c1c(=O)n(C)c(=O)n2C
24: CCC(O)CNc1nc(-n2nc(C)cc2C)nc2sc3c(c12)CC(C)(C)OC3 (stereo not drawn)
25: COc1ccc(C2(C(=O)NCCN3CCOCC3)CCOCC2)cc1
26: N#Cc1ccsc1NC(=O)C1CCN(C(=O)c2ccc(F)cc2)CC1
27: CSC1=C(C#N)C(c2ccccc2C)C(C#N)=C(N)N1 (stereo not drawn)
28: CCS(=O)(=O)N1CCN(Cc2ccc([N+](=O)[O-])cc2)CC1
29: Cc1nc(-c2cccc(NC(=O)C(C)Oc3ccccc3)c2)cs1 (stereo not drawn)
30: Nc1nc(SCC(=O)NCc2ccco2)[nH]c(=O)c1-c1ccccc1

Assay by compound,21,22,23,24,25,26,27,28,29,30
PABP polyA inh,.,-12.8,7.6,-5.8,3.9,.,3.7,24.5,-5.9,-1.5
UUG fidelity,-11.4,-9.7,-44.3,-18.0,-15.2,7.1,-11.9,-1.8,-10.7,-9.7
CSC inhib,.,3.4,4.5,.,-3.8,-8.5,-12.9,7.8,2.6,9.0
Rce1 inh,.,i,i,i,i,.,i,i,i,i
eIF4H FP inh,.,-3.3,-15.2,-2.3,-3.0,.,3.1,1.5,-13.2,7.0
MT1-MMP act inh,7.0,0.8,0.9,9.5,9.4,-2.0,-1.1,-0.3,-1.2,4.6
MT1-MMP act inh RFP,6.6,1.0,6.1,0.9,4.4,1.1,4.8,1.0,-4.2,3.7
Env fusion inh,-32.6,.,.,.,-23.9,2.9,61.7*,-14.4,-3.9,-2.7

31: Cc1ccc(-n2ccc(=O)c(C(=O)O)n2)cc1
32: O=C(O)c1cc2cc(Cl)ccc2[nH]1
33: Cc1cccc(OCCC(=O)NCC(c2ccccc2)N(C)C)c1 (stereo not drawn)
34: COc1ccc(/C=C2\SC(=S)N(CCC(=O)Nc3cccc(C(=O)O)c3)C2=O)cc1OC
35: CC1CCN(C(=O)C2CCCN2S(=O)(=O)c2ccc(Cl)cc2)CC1 (stereo not drawn)
36: COc1ccc(-c2ccc(CCC(=O)O)n2NC(=O)c2ccc(O)cc2)cc1
37: CC(C)(C)OC(=O)CNC(=O)c1[nH]cnc1C(=O)NCCCCCN
38: Cc1ccc2nc(C)cc(C(=O)OCC(=O)c3ccc(Cl)c([N+](=O)[O-])c3)c2c1
39: CCOC(=O)c1cnc2c(C#N)c(C)nn2c1C
40: O=C(NCc1ccc2c(c1)OCO2)c1nc(Cn2ccc([N+](=O)[O-])n2)no1

Assay by compound,31,32,33,34,35,36,37,38,39,40
PABP polyA inh,11.1,.,-5.3,12.6,-0.4,1.5,.,-4.9,4.4,-3.8
UUG fidelity,-16.8,-11.2,-6.0,-12.6,1.0,-23.0,-0.5,1.7,-21.8,-15.3
CSC inhib,.,.,-8.9,-20.2,9.5,-0.7,0.8,6.4,-3.2,10.2
Rce1 inh,i,.,i,i,i,i,i,i,i,i
eIF4H FP inh,-9.0,.,-1.7,-2.1,2.2,-2.8,.,-11.4,1.1,-3.9
MT1-MMP act inh,8.6,-4.1,1.7,-2.4,-5.6,3.3,-2.7,4.2,-2.0,-0.8
MT1-MMP act inh RFP,9.0,0.7,0.1,2.4,0.0,5.0,-4.0,2.6,-1.0,-2.5
Env fusion inh,.,19.4,-9.1,-3.7,-9.1,-17.2,5.1,.,.,23.5

Marked active in Env fusion inh (from the list above):
item	Molecule	UUG fidelity	Rce1 inh	MT1-MMP act inh	MT1-MMP act inh RFP	Env fusion inh
27	CSC1=C(C#N)C(c2ccccc2C)C(C#N)=C(N)N1 (stereo not drawn)	-11.9	i	-1.1	4.8	61.7*

(cont.)
41: O=c1c2oc3ccccc3c2ncn1Cc1ccccc1Cl
42: Cc1ccc(S(=O)(=O)Nc2ccc(C(=O)OCC(=O)N(CCC#N)c3ccccc3)cc2)cc1C
43: C[C@H](CO)N1C[C@H](C)[C@@H](CN(C)C(=O)Oc2ccccc2)OCc2cn(nn2)CCCC1=O
44: COc1cc(-c2nnc(NC(=O)c3ccco3)o2)cc(OC)c1OC
45: COc1ccc(NC(=O)CN2CCc3ccccc3C2)c(OC)c1
46: O=C(NNC(=O)c1cccc(S(=O)(=O)Nc2ccccc2F)c1)c1ccncc1
47: COc1cc(N2C(=O)c3ccccc3C2=O)c(Cl)cc1C(=O)OCC(=O)NCc1ccco1
48: CCOc1ccc(NC(=O)C2CCN(S(=O)(=O)CC)CC2)cc1
49: COc1ccc(C(C(=O)NC(C)(C)C)N(C(=O)Cn2nnc3ccccc32)c2ccc(C(C)=O)cc2)cc1O (stereo not drawn)
50: CC(C)c1ccc(C(=O)N2CCCC(c3cc(C(=O)NCc4ccccc4)no3)C2)cc1 (stereo not drawn)

Assay by compound,41,42,43,44,45,46,47,48,49,50
PABP polyA inh,3.3,-6.9,.,.,-2.3,.,2.3,-0.9,5.5,.
UUG fidelity,-7.6,1.9,5.2&-3.1,-39.6,-12.5,1.9,45.9,2.0,5.8,-5.9
CSC inhib,-6.8,-2.2,.,-9.2,8.6,.,0.9,2.6,-22.2,.
Rce1 inh,i,i,.,i,i,.,i,i,i,.
eIF4H FP inh,-1.0,-10.6,.,.,2.6,.,10.3,-1.9,-6.9,.
MT1-MMP act inh,4.0,-3.6,3.6,14.8,4.0,-4.6,0.9,-0.7,2.3,-4.2
MT1-MMP act inh RFP,-3.0,-0.1,6.4,4.9,1.9,-1.7,3.7,-0.6,4.3,-22.6
Env fusion inh,9.8,-9.3,4.9,-5.6,-2.8,-10.7,.,-84.8,-47.4,-9.7

51: Cc1cccc(NC(=O)NCCN2CCN(c3ccccc3)CC2)c1C
52: Cc1nnc2n1N=CC=C(C(C)(C)C)S2
53: CCCCC(=O)NCCc1cc2ccc(OC)cc2[nH]c1=O
54: Cc1ccc2[nH]c3c(c2c1)SC(C)(C)CC3=O
55: Cc1ccc(CC(=O)NCCN2CCOCC2)cc1
56: O=C(c1sc2ccccc2c1Cl)N1CCN(c2ncccn2)CC1
57: Cc1cc(C)c2c(n1)nn1c(NCCOCCO)cc(C)nc21
58: CCC(=O)Nc1ccc(Cl)c(NC(=O)c2ccccc2OC)c1

Assay by compound,51,52,53,54,55,56,57,58
PABP polyA inh,3.5,5.1,-10.8,-5.0,4.1,-10.9,-0.4,14.1
UUG fidelity,0.4,-14.1,4.4,-14.9,-7.3,.,-11.3,.
CSC inhib,1.9,-3.6,-4.8,2.4,-8.3,-7.8,13.6,8.7
Rce1 inh,i,i,i,.,i,.,?,.
eIF4H FP inh,0.6,-14.2,3.2,0.2,0.9,-4.4,-2.4,2.1
MT1-MMP act inh,4.9,2.6,-0.7,-5.1,-2.4,0.8,10.4,-3.2
MT1-MMP act inh RFP,3.2,3.5,4.6,-2.5,-0.1,-1.4,5.4,-3.1
Env fusion inh,6.4,-35.2,.,21.2,14.6,21.9,-7.7,-8.4
